# Bioassay records as filed in PubChem.
# Choline anaer gr: blocks anaerobic gram-negative growth on choline; hit rate 0.2% among 55,000; AID 1963822; Gram-negative bacterium anaerobic choline minimal medium, absorbance growth; active compounds read low; many inactives read as strong as hits in the columns shown; calls only;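 active = growth z-score on choline under -2 at 7 or 20 h with little or no fall on glycerol, limits in tiers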;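 note: stock transfer was 300 nL into about 50 µL; the organism is E. coli; final concentration not given here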
# Choline anaer gr early: further read-out of Choline anaer gr, marked with its call; z-score; measured here: choline growth z-score, timepoint 1;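 score of optical density at 7 h as mean of two plates; lower means less growth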
# Active calls of the source: *; i = inactive; & = joins results of further samples.
SMILES,Choline anaer gr,Choline anaer gr early
Cc1ccc(S(=O)(=O)NCCn2c(-c3ccc(F)cc3)nc3cccnc32)c(C)c1,i,0.02
Cc1cc(-c2cc(S(=O)(=O)NCCCOC(C)C)c(C)s2)n[nH]1,i,0.36
CCCN1CCN(S(=O)(=O)c2c(-c3nc(C4CC4)no3)c(C)n(CC)c2C)CC1,i,0.68
Cc1ccccc1C1CC(=O)NC2=C1C(=O)CCC2 (stereo unspecified),i,-0.27
Cc1csc(NC(=O)c2cc(C(C)C)n(C3CCS(=O)(=O)C3)n2)n1 (stereo unspecified),i,-1.7
CCOc1ccccc1N1CCN(S(=O)(=O)c2nn(C)cc2C(=O)NC2CCCC2)CC1,i,0.45
COC(=O)c1c(NC(=O)c2snnc2C)sc2c1CCC2,i,0.06
Cc1n[nH]c(=O)c2c(C)n(-c3ccccc3)nc12,i,0.24
C/C(=N\NC(=O)[C@@H]1C(=O)NC[C@H]1c1ccccc1)c1cccc(Br)c1,i,0.58
Cc1cc(C)c(S(=O)(=O)Nc2ccc(N3CCOCC3)cc2C(=O)O)cc1C,i,-0.66
COc1ccc(Nc2nc(C)c3ncn(-c4ccc(OC)cc4)c3n2)cc1,i,0.39
CCc1ccc(NC(=O)CSc2nnc(C(C)N3C(=O)COc4ccccc43)n2C)cc1 (stereo unspecified),i,0.06
Fc1ccc(-c2csc(Cc3nc(-c4cccc(Cl)c4)no3)n2)cc1,i,0.78
Cc1ccc(-n2nc(C)c3c(C)cc(=O)[nH]c32)cc1C,i,1.4
CCC1CCCCN1S(=O)(=O)c1ccc(S(=O)(=O)N2CCC(c3nnc(-c4ccccc4OC)o3)CC2)cc1 (stereo unspecified),i,1.2
CO[C@@]1(NC(=O)[C@H](C(=O)O)c2ccc(O)cc2)C(=O)N2C(C(=O)O)=C(CSc3nnnn3C)CO[C@@H]21,i,-2.7
O=C(NC1CCCc2ccccc21)c1ccc(-n2nnc3cccnc32)cc1 (stereo unspecified),i,-0.34
CC(C)CN1CCn2cc(S(=O)(=O)N3CCN(c4ccccc4)CC3)cc2C1=O,i,0.21
Cc1n[nH]c(C)c1S(=O)(=O)N1CCCC(c2nnc(C(=O)Nc3cccc(F)c3)s2)C1 (stereo unspecified),i,-2.3
COc1ccc(CCN2CC(O)=C(c3nc4ccc(C)cc4[nH]3)C2=N)cc1,i,0.6
COc1ccc(F)cc1-c1cc(N2CCN(S(=O)(=O)c3ccc(F)c(Cl)c3)CC2)ncn1,i,0.71
CS(=O)(=O)N1CCC(c2noc(-c3ccccc3)n2)CC1,i,-0.59
CCN1CCN(c2nc(Oc3ccc(OC)cc3)c3c(c2Cl)S(=O)(=O)CCN3CC2CCCO2)CC1 (stereo unspecified),i,-0.41
Cc1ccc(-n2c(=O)c3ccccc3n(Cc3nc(-c4ccccc4)no3)c2=O)cc1C,i,0.46
Cc1cccc(NC(=O)CCn2c(C(F)(F)F)nc3cc(S(=O)(=O)N(C)C)ccc32)c1C,i,-0.69
O=C(Cc1ccccc1Cl)NC(c1ccc(F)cc1)c1nnc(-c2ccccc2)o1 (stereo unspecified),i,1.6
CC1CCC(C(=O)NC(Cc2c[nH]c3ccccc23)C(=O)NCCc2ccc(S(N)(=O)=O)cc2)CC1 (stereo unspecified),i,0.45
CCOC(=O)c1nc2ccccc2nc1NCc1ccncc1,i,-1.3
Cc1ccccc1-c1noc(CCC(=O)Nc2cccnc2)n1,i,-0.25
CN(C)CCC(c1ccccc1)c1ccccn1 (stereo unspecified),i,-0.4&-0.12&-0.34
Cc1nc(-c2ccc(F)cc2)sc1CCNC(=O)c1ccc(Cl)cc1,i,-0.05
O=C(NCc1ccc(F)cc1)N1CCCC1c1ccc(F)cc1 (stereo unspecified),i,-0.75
CC1=C(C(=O)NC2CCCCC2)C2(CCN(S(C)(=O)=O)CC2)OC1=O,i,-0.51
CCCC(=O)N(Cc1nc2nc(C)cc(C)n2n1)c1ccccc1Cl,i,0.39
CC1(C)CN(CC(=O)N2CCCC2)c2ccc(S(=O)(=O)N3CCOCC3)cc21,i,1.6
O=C(Nc1ccccc1)C1CCCN(C(=O)C2Sc3ccccc3NC2=O)C1 (stereo unspecified),i,-0.44

# Of the compounds above, six contain an NH in an aromatic ring.
SMILES,Choline anaer gr,Choline anaer gr early
Cc1cc(-c2cc(S(=O)(=O)NCCCOC(C)C)c(C)s2)n[nH]1,i,0.36
Cc1n[nH]c(=O)c2c(C)n(-c3ccccc3)nc12,i,0.24
Cc1ccc(-n2nc(C)c3c(C)cc(=O)[nH]c32)cc1C,i,1.4
Cc1n[nH]c(C)c1S(=O)(=O)N1CCCC(c2nnc(C(=O)Nc3cccc(F)c3)s2)C1 (stereo unspecified),i,-2.3
COc1ccc(CCN2CC(O)=C(c3nc4ccc(C)cc4[nH]3)C2=N)cc1,i,0.6
CC1CCC(C(=O)NC(Cc2c[nH]c3ccccc23)C(=O)NCCc2ccc(S(N)(=O)=O)cc2)CC1 (stereo unspecified),i,0.45

# Back to the main list with the 3 entries that preceded the break.
SMILES,Choline anaer gr,Choline anaer gr early
CCCC(=O)N(Cc1nc2nc(C)cc(C)n2n1)c1ccccc1Cl,i,0.39
CC1(C)CN(CC(=O)N2CCCC2)c2ccc(S(=O)(=O)N3CCOCC3)cc21,i,1.6
O=C(Nc1ccccc1)C1CCCN(C(=O)C2Sc3ccccc3NC2=O)C1 (stereo unspecified),i,-0.44
O=C(COc1ccccc1-c1nc(-c2ccccc2Cl)no1)NC1CCCCC1,i,-0.2
Cc1ccc(-c2nnc3ccccc3c2C(=O)Nc2ccc3c(c2)OCCO3)cc1,i,0.01
CCN(CC)c1cc(CNC(=O)NCCCOC)ccn1,i,0.03
CC1CCc2c(sc3nc(CCC(=O)NC4CCCC4)[nH]c(=O)c23)C1 (stereo unspecified),i,1.4
COc1ccc(N2CCN(C(=O)c3[nH]c(C)c(S(=O)(=O)N4CCCC4)c3C)CC2)cc1,i,-0.02
Cc1ncc(C[n+]2csc(CCO)c2C)c(N)n1,i,0.58
CCN1CC(=O)N(C)c2cc(C(=O)O)ccc21,i,-1.1
NC(=O)CSc1nc(-c2ccccc2)nc2c1Cc1cc(Cl)ccc1O2,i,-1.2
COc1ccc(N2CCN(c3nccc4ccc(C(=O)NCc5ccc(Cl)cc5)cc34)CC2)cc1,i,-0.78
COc1ccc(C(=O)Nc2ccccc2SCc2cc(=O)n3cc(C)sc3n2)cc1OC,i,-0.11
Cn1c(CN2CCOCC2)nc2ccccc21,i,-1.8
CCOC(=O)C1CCN(C(=O)c2nnc(-c3ccc(S(=O)(=O)N4CCCC4)cc3)o2)CC1,i,-0.31
COc1ccc2nc(NC3=NCN(Cc4cccnc4)CN3)nc(C)c2c1,i,-0.17
CN(C1CCCCC1)C1CCN(C(=O)c2cc(-c3cccnc3)n[nH]2)CC1,i,0.64
COc1cc(C2CC(=O)C3=C(C2)Nc2onc(C)c2C3c2ccccc2OC)ccc1O (stereo unspecified),i,1
COc1cccc(CN2C(=O)c3ccccc3Sc3ccc(C(=O)NC4CCCC4)cc32)c1,i,0.16
CCNc1ncnc2onc(-c3ccccc3C)c12,i,-1.3
CCn1c(C(=O)N2CCCCC2)cc2sccc21,i,-0.22
COc1ccc(C(NC(C)=O)c2ccc3cccnc3c2O)cc1 (stereo unspecified),i,-4
Cn1cnc2c(=O)oc3ccc(S(=O)(=O)NC4CCCCC4)cc3c21,i,-0.74
COCCN(CCOC)C(=O)c1sc2nc(-c3ccccc3)cn2c1C,i,-0.37
CCCC1c2ccc(C)n2CCN1C(=O)Nc1ccccc1Cl (stereo unspecified),i,0.84
O=C(OCC1CCCO1)c1ccc2c(c1)N(Cc1ccc(F)cc1)C(=O)c1ccccc1S2(=O)=O (stereo unspecified),i,0.27
CCN1CCN(CCNC(=O)CCCn2nc(C)c3nn(-c4ccccc4)c(-n4cccc4)c3c2=O)CC1,i,0
COc1cc2c(cc1OC)C(c1ccc(F)cc1)N(c1ccccc1)C(=O)C2 (stereo unspecified),i,-0.74
O=C(Oc1ccc(F)cc1)c1cc(-c2ccc3c(c2)OCCO3)on1,i,1.1
Clc1ccc(-n2ncc3c(N4CCCC4)ncnc32)cc1,i,-0.44
CCn1nnc(NCc2ccc(-c3cccc(Cl)c3)o2)n1,i,-0.27
O=C(NC1CC1)C1CCN(c2ncc(-c3ccccc3)cn2)CC1,i,-2.4
Cc1ccc(-c2noc(-c3cc(N4CCSCC4)nc4ccccc34)n2)cc1,i,0.77
CCOC(=O)C1CCCN(C(=O)Cn2c(=O)c(=O)n(C)c3ncccc32)C1 (stereo unspecified),i,1.4
Cc1cc(NC(=O)c2cccnc2)ccc1-c1nc2ccccc2s1,i,0.25
CC(=O)Nc1ccc(-c2noc(C3CCCN(C(=O)Cc4cccc(F)c4)C3)n2)cc1 (stereo unspecified),i,0.22
Cc1ccccc1-c1noc(CSc2ccc(-c3ccc4c(c3)OCO4)nn2)n1,i,0.7
CCS(=O)(=O)c1ccc(OCc2cc(=O)n3oc(C)cc3n2)c(NC(C)=O)c1,i,-0.74
Cc1cc(C)c2c(n1)sc1c(=O)n(CC(=O)Nc3ccc4c(c3)OCCO4)cnc12,i,0.35
O=C(CSc1cc(N2CCCCC2)ncn1)NC1CCCC1,i,1.1
O=C(c1ccc(F)cc1)N1CCN(CCc2ccccn2)CC1,i,-1.9
O=C(Nc1nc2ccccc2n1CCN1CCOCC1)c1cccc([N+](=O)[O-])c1,i,1.1
CCOc1ccc(NC(=O)CN2C(=O)C3CCCC3=Nc3ccccc32)cc1 (stereo unspecified),i,-1.9
CC1(C)CC(=O)C2=C(C1)Nc1ccccc1N(CC(=O)NCc1ccncc1)C2c1ccccc1 (stereo unspecified),i,-0.5
Cc1cc(N2CCN(C)CC2)n2nc(CN3CCC4(CC3)OCCO4)nc2n1,i,-1.4
Cc1ccc(-c2noc(CCC(=O)N3CCCC3)n2)c(=O)n1C(C)C,i,0.55
CCOc1ccccc1NC(=O)c1c(O)c2ccccc2[nH]c1=O,i,1.7
CCC(C)(N)c1nnnn1-c1ccc(C)cc1 (stereo unspecified),i,-0.86
Cc1ccc(-c2cc(C(=O)Nc3nccs3)no2)cc1,i,-0.12
CC(=O)N1CCSc2ccc(S(=O)(=O)Nc3cccc(Cl)c3)cc21,i,-1.2
CCOc1cc(-c2cccc(Cl)c2)nc2ccc(C(=O)N3CCCCC3)cc12,i,0.2
CCCCC(=O)NCCc1csc(-c2ccccc2)n1,i,0.34
COc1ccc(C2CC(=O)c3cnc(NC4OC(=O)c5ccccc54)nc3C2)cc1OC (stereo unspecified),i,-0.04
O=C(OCCN1CCCC1=O)c1cnn2c(C(F)(F)F)cc(-c3ccccc3)nc12,i,-0.42
COc1ccccc1-c1cc(C(F)(F)F)n2ncc(C(=O)OCCN(C)c3nsnc3Cl)c2n1,i,2
Cc1ccc(-c2ccc3nn(Cc4nc(-c5cccc(Br)c5)no4)c(=O)n3n2)cc1,i,0.45
CCOC(=O)N1CCC2(CC1)N=C(c1ccccc1O)CC(c1ccccc1)N2 (stereo unspecified),i,0.15
CCOc1ccc(NC(=O)C2CCCN(c3ncnc4onc(-c5ccc(F)cc5)c34)C2)cc1 (stereo unspecified),i,-0.79
O=C(NCCc1nc2cccnc2n1Cc1ccccc1)NCc1ccccc1,i,1.1
CC(C(=O)NCCCN1CCN(C)CC1)C1CCN(S(=O)(=O)c2cccs2)CC1 (stereo unspecified),i,0.38
CC1(C(=O)NCc2ccc3c(c2)OCO3)CCN(C(=O)NC2COc3ccccc3C2)CC1 (stereo unspecified),i,-0.3
Cc1ccc(N(Cc2nnc(SCC(=O)Nc3cc(C)ccc3O)n2C)S(C)(=O)=O)cc1,i,-0.65
CN(C)C(=O)c1ccc2c(c1)nc(CN1CCN(S(=O)(=O)c3cc(F)ccc3F)CC1)n2C,i,-0.53
# Next part.
SMILES,Choline anaer gr,Choline anaer gr early
Cc1nc2nc(C)c(Cc3ccc(C(C)C)cc3)c(=O)n2[nH]1,i,-1.1
Clc1ccc(-c2nc(-c3ccc4nncn4c3)no2)cc1,i,1.2
CN1CCN(c2oc(-c3ccc(F)cc3)nc2S(=O)(=O)c2ccc(F)cc2)CC1,i,-0.13
CC(C)CNC(=O)CCn1c(=O)c2ccccc2n2c(=S)[nH]nc12,i,0.96
c1ccc(-c2noc(NC3CCCC3)n2)cc1,i,-1.6
Cn1c(=O)n(Cc2cccnc2)c(=O)c2cnc(-c3ccc(Cl)cc3)nc21,i,1.1
CCCCOc1ccccc1C(=O)Nc1ccc2c(c1)NC(=O)CO2,i,0.95
CC(=O)Nc1cnc(N2CCN(c3cc(Cl)ccc3C)CC2)c(C(=O)O)c1,i,-0.32
CCS(=O)(=O)N1CCCc2cc(NC(=O)c3c(-c4ccccc4Cl)noc3C)ccc21,i,-1.5
CC(C)Oc1cccc(NC(=O)C2CCCN(S(=O)(=O)Cc3ccccc3)C2)c1 (stereo unspecified),i,0.66
Cc1nc(-c2ccc3c(c2)n(CC(=O)NCc2ccc4c(c2)OCO4)c(=O)n3C(C)C)no1,i,-0.35
COc1ccc(OC)c(S(=O)(=O)n2nc(C)c(S(=O)(=O)N3CCOCC3)c2C)c1,i,0.2
Cc1cc2nc(CSc3nnc(-c4cc(C)n(C)n4)o3)cc(=O)n2o1,i,-0.17
Cn1c(=O)n(CCC(=O)N2CCCC2)c(=O)c2cc(S(=O)(=O)NC3CCCC3)ccc21,i,-0.47
CCOC(=O)c1nnc2c(-c3ccc(Cl)cc3)c(C)nn2c1C,i,0.41
CCn1c(=O)c2c(C(=O)Nc3ccc(F)cc3F)cc(=O)n(CC)c2n(C)c1=O,i,0.5

# A portion of the library; count on the stated rates, not on these rows.
